Ab BasE inh: BasE siderophore biosynthesis inhibition | inhibition, % (test concentration not listed) | purified BasE, fluorescence polarization binding displacement | actives 0.1% (n = 84,000);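 active = both replicates above 25% with normal brightness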;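 note: 0% = negative plate control signal and 100% = positive plate control signal; stock transfer was 100 nL into about 30 µL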
KSHV LANA nucl: inhibitors of KSHV LANA binding to nucleosomes | FITC-LANA1-23 / chicken nucleosome fluorescence polarization; active compounds read low | z-score (no concentration beside the values) | actives 0.3% (n = 51,000) | AID 720717;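 active = both repeat wells score below -2 in polarization z-score versus plate sample wells, excluding overly bright wells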;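 note: 100 nL library stock added to about 30 µL; numbers are from one replicate; some results filed as inactive read as strong as hits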
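Material: Purified chicken nucleosomes with FITC-labelled LANA N-terminal peptide (1-23) | Reagent: 50 nM FITC-LANA1-23 probe | Medium: TEN-BT buffer, pH 7.5 | Times: 10–45 min incubation at room temperature | Detection: Fluorescence polarization | Replication: Duplicates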
* marks the source's active call; other numbers are inactive results; / = no result given. Only part of the results is shown. The share of hits here may be higher or lower than overall.

SMILES	Ab BasE inh	KSHV LANA nucl
C/C(=N\OC(=O)c1ccc(S(=O)(=O)N2CCCC(C)C2)cc1)c1ccc(C)o1 (configuration not stated)	1.4	/
Cc1nc2ccc(NC(=O)CS(=O)(=O)c3ccc(F)cc3)cc2s1	-1.8	0.039
CN=c1scc(-c2cc(OC)ccc2OC)n1/N=C/c1ccco1	0.0	/
CC(O)(C(=O)Nc1ccc(S(=O)(=O)c2ccccc2)cc1)C(F)(F)F (configuration not stated)	1.9	0.39
OCCCNCc1ccccc1Cl	-4.0	0.15
Cn1c(-c2ccccc2)c(C(=O)Cn2cnc3sccc3c2=O)c2ccccc21	0.1	/
CN(C(=O)C1(c2cccs2)CCOCC1)c1ccccc1	-0.4	0.17
Cc1ccccc1S(=O)(=O)Cc1ccc(C(=O)N2CCN(c3ccccc3)CC2)o1	2.3	0.19
CN(C(=O)COc1ccc(-c2nnco2)cc1)C1CCCc2ccccc21 (configuration not stated)	-2.3	/
CC1=NNC(=O)C1C(c1cccc(F)c1)C(C#N)C#N (configuration not stated)	0.5	0.31
CCN(CCO)C(=O)CCN1C(=O)/C(=C\c2ccco2)SC1=S	1.1	0.89
O=C(NCCCN1CCOCC1)C1CC(=O)N(c2ccccc2)C1 (configuration not stated)	1.6	-1.1
CC(NS(=O)(=O)c1ccc(Br)cc1)C(=O)Nc1nc2ccccc2[nH]1 (configuration not stated)	0.3	/
CNc1ccccc1C(=O)NC1CCCCC1	-0.7	/
CC(/C=C/C(=O)NO)=C\[C@@H](C)C(=O)c1ccc(N(C)C)cc1	-3.1	0.3
COC(=O)c1ccc(CSc2nnc(-c3ccc(F)cc3)c3ccccc23)o1	1.8	/
C/C(=N\OCCN1CCCCC1)C1COc2ccccc2O1 (configuration not stated)	0.7	0.52
CCOC(=O)c1cnc(SC)nc1NC(=O)Nc1cccc(OC)c1	0.5	-0.19
CCn1cc(NC(=O)NCC2CCCCC2)c(=O)c2ccc(C)nc21	1.3	-1
Cc1c(C(=O)NCc2cccnc2)oc2ccc3c(c12)C(=O)CC1(CCCC1)O3	0.0	-0.033
CCCOc1ccc(Cn2cnc3ccccc32)cc1	19	0.18
Cn1c(=O)c2sccc2n2c(CCCC(=O)NC3CCN(Cc4ccccc4)CC3)nnc12	2.4	0.29
CCN(CC)C(=O)COCc1cc(-c2ccco2)on1	-3.8	2.2
Cc1cc(-c2csc(N)n2)c(C)n1-c1ccc2c(c1)OCO2	-3.0	/
COc1cc(/C=N/OCC(=O)NC2CC2)cc(Cl)c1OC	2.1	/

(listing goes on)
SMILES	Ab BasE inh	KSHV LANA nucl
O=C(CNC(=O)C1CCCCC1)OCc1cc(=O)n2c(n1)sc1ccccc12	2.6	/
Cc1nc(Nc2ccccc2)sc1C(=O)c1cc2ccccc2s1	2.1	/
CC(C)c1c(C#N)c(N)nc(SCC(=O)c2cc3ccccc3oc2=O)c1C#N	-0.2	/
O=C(Cc1ccsc1)NCCc1ccc2c(c1)OCCO2	1.1	/
C=CCn1c(Br)nc2c1c(=O)n(C)c(=O)n2C	0.3	-0.95
Nn1c(SCC(=O)NC2CCCc3ccccc32)nnc1-c1cccs1 (configuration not stated)	-1.3	/
CCCCCC1C/C(=N/OC(C)=O)C=C(C)C1C(=O)OC (configuration not stated)	-2.1	-0.58
O=C1Cc2ccc(F)cc2CC1C1=Cc2ccc(F)cc2CC1 (configuration not stated)	1.3	/
COc1ccc(-n2ccc3ccccc32)cc1	3.5	/
CC(=O)Nc1ccc(NC(=O)C2CCCN(c3cnccn3)C2)cc1 (configuration not stated)	0.4	0.11
Cc1nc(C)c(Oc2ccc(Cl)cc2Cl)c(N2CCCCC2)n1	-3.7	/
Cc1nc2ccc(Cl)cc2c2c1CCS2	4.1	0.23
OC1CCCc2c1[nH]c1ccc(C(F)(F)F)cc21 (configuration not stated)	-0.3	-0.21
CCOC(=O)c1c(NC(C)=O)sc2c1CCC2	-0.1	0.61
CN1C(=O)COc2ccc(C(=O)CSc3nc(-c4ccccc4)c(C#N)c(=O)[nH]3)cc21	-0.8	-1.2
CCCCN(C)C1CCN(Cc2ccccc2)CC1	0.2	-1.6
Cc1nn(CCC#N)c2nc(-c3ccc(C4CCCCC4)cc3)cc(C(=O)O)c12	0.6	/
Cc1nn(CCCN)cc1Cl	-3.7	1.6
Cc1cc(C)c2c(c1)/C(=c1/sc3n(c1=O)CN(c1cccc(Br)c1)CN=3)C(=O)N2	1.4	/
CC(=O)Nc1ccc(-c2ccc3nnc(C)n3n2)cc1	-0.5	0.53
CCOC(=O)C1CCN(C(=O)c2ccccc2NS(=O)(=O)c2cccs2)CC1	1.1	/
COc1cccc2c3c(c(C)nc12)CCS3	/	-0.87
CSc1cc(-c2ccc(Cl)cc2)c(C(=O)O)s1	/	-0.65
Cc1ccc(-n2c(SCC(=O)NCCC3=CCCCC3)nc3n[nH]c(C)c3c2=N)cc1Cl	1.6	-1.3
O=C(NC1CCCCC1)N1CCC(c2nc3ccccc3[nH]2)CC1	-0.6	-0.72

Next results follow.
SMILES	Ab BasE inh	KSHV LANA nucl
COc1ccc(CCNC(=O)/C=C2\SC(=O)NC2=O)cc1	0.5	0.082
O=C(CCSc1nnc(-c2ccc(O)cc2)o1)N1CCCCC1	-1.2	-0.18
Cc1ccc(NC(=O)CSCC(N)=O)cc1C	-1.1	-0.16
Cc1cc(C)nc(SCc2nnc(SCc3ccccc3)n2Cc2ccco2)n1	-2.8	-1.1
O=C(Nc1ccccc1)NN1CC(=O)N(c2cccc(C(F)(F)F)c2)CC1=O	1.8	0.24
Cc1ccccc1/C=N/n1c(C)cc(C)c(C#N)c1=O	0.1	/
NS(=O)(=O)c1ccc(CCNC(=O)CN2CCCc3ccccc32)cc1	1.7	/
COc1ccccc1NC(=O)CO/N=C(\C)c1cccs1	-0.5	/
O=C(CN1C(=O)S/C(=C\c2cccs2)C1=O)OCC(=O)c1ccc[nH]1	3.3	/
NCCNS(=O)(=O)c1cccc2c(Cl)cccc12	-3.7	0.37
O=C(NCCNCc1ccccc1)c1ccco1	-1.6	-1
CC1CCN(S(=O)(=O)c2ccc(NC(=O)c3ccc(C(C)(C)C)cc3)cc2)CC1	1.5	/
COc1ccc(C2C(C(=O)O)c3ccccc3C(=O)N2Cc2ccc(Cl)cc2)cc1 (configuration not stated)	1.2	/
CCOC(=O)C1CCCN(C(=O)c2ccc(OCC)cc2)C1 (configuration not stated)	2.2	-0.6
Cc1cc2n(n1)CCCN2C(=O)CCC(=O)N1CCCCCC1	-3.9	/
N#Cc1ccc(Oc2ccccc2)cc1C#N	-0.3	0.37
CC(Sc1nnc(N)s1)C(=O)NC(C)C1CC2CCC1C2 (configuration not stated)	-3.1	/
CSc1nnc(CNC(=O)OC(C)(C)C)n1C	-1.4	/
FC(F)(F)c1ccccc1-n1c(-c2ccco2)n[nH]c1=S	2.6	0.52
Cc1ccc(N=C2C(=O)N(C)c3ccccc32)cc1	/	-1.7
CC(C)c1ccc(C(=O)Nc2ccccc2C#N)cc1	3.0	-0.15
O=C(NC(=O)c1cn2cc(C(F)(F)F)cc(Cl)c2n1)Nc1ccc(Cl)cc1	0.2	/
CCN(CC)C(C(=O)O)c1ccccc1 (configuration not stated)	-0.5	-1.2
COc1ccccc1CNC(=O)c1ccccc1N(C)S(C)(=O)=O	2.0	-0.22
Cc1nn(-c2cccc(C(F)(F)F)c2)c2c1cnn2-c1nc2ccccc2o1	0.1	/

Quoted at random: 3 compounds from above.
SMILES	Ab BasE inh	KSHV LANA nucl
Cc1ccccc1S(=O)(=O)Cc1ccc(C(=O)N2CCN(c3ccccc3)CC2)o1	2.3	0.19
CSc1cc(-c2ccc(Cl)cc2)c(C(=O)O)s1	/	-0.65
Nn1c(SCC(=O)NC2CCCc3ccccc32)nnc1-c1cccs1 (configuration not stated)	-1.3	/

More results
SMILES	Ab BasE inh	KSHV LANA nucl
CSCCC(C(=O)Nc1cccnc1)N1C(=O)c2ccccc2C1=O (configuration not stated)	-0.5	/
O=C(Sc1ccc(C(F)(F)F)cn1)/C(=C\c1cccs1)c1ccsc1	-0.2	/
CC(C)N1C(=O)CNC1=S	-0.6	-0.12
NC(=O)c1ccccc1Nc1cccc(C(F)(F)F)c1	0.5	-0.033
Cc1ccc(C)c(OCCCCn2nnc3ccccc32)c1	1.4	0.26
S=c1nc(-c2cccs2)[nH]c2ccccc12	0.0	/
COc1ccc(CCN2C(=O)CC(Sc3ccccc3C(=O)O)C2=O)cc1OC (configuration not stated)	0.9	/
CCn1c(SCc2cc(=O)oc3cc(NC(C)=O)ccc23)nnc1-c1ccccc1	-5.5	/
Cc1ccccc1C(=O)N/N=C/c1ccccc1	2.2	/
CCC(=O)c1c[nH]c(C(=O)NCc2cccnc2)c1	/	-1.1
COC(=O)c1ccc2c(c1)N(C)S(=O)(=O)/C(=C\N(C)C)C2=O	4.1	0.1
CCNc1nc(=S)[nH]c2ccccc12	2.1	/
CC(=O)N(CN1C(=O)C2CC=CCC2C1=O)c1ccccc1 (configuration not stated)	1.8	/
COc1ncccc1C(=O)Nc1ccc(F)cc1F	-1.7	/
O=C(NNc1nc2ccccc2s1)Nc1ccccc1	0.1	0.34
O=C(CCn1c(=O)oc2ccccc21)Sc1ccc(Cl)cc1Cl	-1.5	/
Cc1cc(C)cc(CC2CC(=O)N(CCc3ccc4c(c3)OCO4)C2=O)c1 (configuration not stated)	-0.6	/
CCN(CC)S(=O)(=O)c1ccc(-n2c(=O)c(C(C)C)c(C)n2C)cc1	1.7	-1.4
COc1ccc(CC(=O)Nc2ccccc2N2CCOCC2)c(OC)c1	1.5	/
Cc1noc(C)c1C(=O)OCC(=O)N1CCCC1=O	0.1	/
CC(=O)Nc1sc2c(c1CN1CCN(c3ccccn3)CC1)CCCC2	1.1	/
O=C(NCCCN1CCCC1=O)c1cccnc1	0.5	1.1
FC(F)(F)c1ccc(C2=NCCc3sccc32)cc1	2.2	/
CCc1ccc(NC(=O)COC(=O)C2CCN(c3nc4ccccc4o3)CC2)cc1	-1.0	/
CC(C)c1ccc(-c2nn(-c3ccccc3)cc2C(=O)Oc2ccc(-c3nnco3)cc2)cc1	-0.6	/

Continued:
SMILES	Ab BasE inh	KSHV LANA nucl
CSc1ncc(C(=O)OCC(=O)c2ccc(NS(C)(=O)=O)cc2)n1-c1ccccc1	-0.5	/
COC(=O)C1=C(C)C(c2cccc(Oc3ccccc3)c2)NC(=O)N1 (configuration not stated)	-1.6	-0.19
CN(C(=O)COC(=O)c1ccccc1O)C1(C#N)CCCCC1	8.3	/
CNc1c(NC(=O)c2ccccc2OC)c(=O)oc2ccccc12	1.1	-0.66
CC1=NN(C)c2nc3c(c(=O)n(C)c(=O)n3C)n2C1	1.7	-0.31
CC(C#N)(NC(=O)CN1CCN(C/C=C/c2ccccc2)CC1)C1CC1 (configuration not stated)	-1.2	/
O=C(Nc1ccccc1)Nc1cccc(F)c1	-0.3	0.067
N#Cc1ccc(COC(=O)CCSc2ccccc2)cc1	2.8	/
COc1ccccc1/C=C/C=N\NC(=O)Cc1cccn1C	-0.2	0.39
Cc1nn(C)c(C)c1Cc1ccc(O)cc1	/	0.11
CCOc1ccc(/C(O)=C/C(=O)C(=O)OC)cc1	-0.1	/
COC(=O)c1ccc(OC(=O)CCn2ccc3ccccc32)cc1	2.6	/
Clc1ccc(OCCN2CCCC2)c2ccccc12	-11	-1.7
O=c1[nH]cc(S(=O)(=O)N(Cc2ccccc2)Cc2ccccc2)c(=O)[nH]1	-1.8	0.39
Cc1oc2cc(OC(=O)N3CCOCC3)ccc2c(=O)c1-c1ccc(Br)cc1	-3.7	0.34
N#CCC(=O)Nc1ccc(C(=O)Nc2cccc(Cl)c2)cc1	1.2	/
CCOC(=O)N1CCC(NC(=O)CCC(=O)N2CC(C)Oc3ccc(Cl)cc32)CC1 (configuration not stated)	0.2	0.13
O=C(NC1CC1)c1c(O)c2cccc3c2n(c1=O)CC3	0.6	-0.26
O=C(Nc1ccc(C(F)(F)F)cc1)c1cnc2ccccc2n1	-0.3	0.008
CCOC(=O)N1CCC(NC(=O)CN(C)S(=O)(=O)c2ccc3nc(C)sc3c2)CC1	-1.2	-0.27
CCOC(=O)C1=C(C)NC(C)=C(C(=O)OCC)C1C(=O)OCc1cn2cc(Cl)ccc2n1	-0.8	/
O=C(OCCN1C(=O)c2ccccc2C1=O)c1ccccc1O	-0.9	/
O=C(CN1CCN(S(=O)(=O)c2cccs2)CC1)Nc1ccc(S(=O)(=O)N2CCCC2)cc1	1.8	/
COc1cc2c(cc1OC)CN(Cc1cccs1)CC2	-1.6	0.44
Cn1ccsc1=NC(=O)/C=C/c1ccc2c(c1)OCO2	7.1	/

The last six records of the section before open the next one:
SMILES	Ab BasE inh	KSHV LANA nucl
CCOC(=O)N1CCC(NC(=O)CN(C)S(=O)(=O)c2ccc3nc(C)sc3c2)CC1	-1.2	-0.27
CCOC(=O)C1=C(C)NC(C)=C(C(=O)OCC)C1C(=O)OCc1cn2cc(Cl)ccc2n1	-0.8	/
O=C(OCCN1C(=O)c2ccccc2C1=O)c1ccccc1O	-0.9	/
O=C(CN1CCN(S(=O)(=O)c2cccs2)CC1)Nc1ccc(S(=O)(=O)N2CCCC2)cc1	1.8	/
COc1cc2c(cc1OC)CN(Cc1cccs1)CC2	-1.6	0.44
Cn1ccsc1=NC(=O)/C=C/c1ccc2c(c1)OCO2	7.1	/
O=S(=O)(c1ccc(Sc2nnc3ccccn23)nc1)N1CCCC1	5.7	/
CC1(C)CC(NC(=O)CC2CCCCC2)CC(C)(C)N1	1.4	0.37
CCOc1ccc(C(=O)OCC#N)cc1OCC	-0.5	/
COc1ccc(NC(=O)Nc2ccc(CN3CCCCC3)cc2)cc1	-1.6	-0.028
c1cc2c(cc1CNC1=NCCC1)OCO2	1.9	/
CCCCCCCCCCCCCCCC(=O)OC[C@H](NC(=O)C(Cl)Cl)[C@H](O)c1ccc([N+](=O)[O-])cc1	/	0.29
CCn1c(=O)n(CC)c2cc(NC(=O)Cn3cnc4ccccc43)ccc21	17	0.49
